NPR1 antag – Natriuretic polypeptide receptor (hNpr1) antagonism - Primary qHTS. Atrial natriuretic peptide receptor 1 (Homo sapiens), P16066. HEK293 hNpr1 GloSensor cGMP, ANP-stimulated luminescence. Potency, µM (highest dose often 46.3 µM), for the others: at the highest dose activity change, negative = inhibition, most hits filed as inhibitors. 76,000 compounds, 1.6% hits; active = well fitted inhibition curve with a large enough effect; inconclusive = small, poorly fitted or top-dose-only effect; inactive = no such curve, though single readings can be large or run the other way;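 further: nearly all actives have a fitted effect of over 60% in size; nearly all hits also lower the signal before the agonist is added; a reference antagonist and vehicle were the controls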
Target sequence (P16066 whole entry, looked up): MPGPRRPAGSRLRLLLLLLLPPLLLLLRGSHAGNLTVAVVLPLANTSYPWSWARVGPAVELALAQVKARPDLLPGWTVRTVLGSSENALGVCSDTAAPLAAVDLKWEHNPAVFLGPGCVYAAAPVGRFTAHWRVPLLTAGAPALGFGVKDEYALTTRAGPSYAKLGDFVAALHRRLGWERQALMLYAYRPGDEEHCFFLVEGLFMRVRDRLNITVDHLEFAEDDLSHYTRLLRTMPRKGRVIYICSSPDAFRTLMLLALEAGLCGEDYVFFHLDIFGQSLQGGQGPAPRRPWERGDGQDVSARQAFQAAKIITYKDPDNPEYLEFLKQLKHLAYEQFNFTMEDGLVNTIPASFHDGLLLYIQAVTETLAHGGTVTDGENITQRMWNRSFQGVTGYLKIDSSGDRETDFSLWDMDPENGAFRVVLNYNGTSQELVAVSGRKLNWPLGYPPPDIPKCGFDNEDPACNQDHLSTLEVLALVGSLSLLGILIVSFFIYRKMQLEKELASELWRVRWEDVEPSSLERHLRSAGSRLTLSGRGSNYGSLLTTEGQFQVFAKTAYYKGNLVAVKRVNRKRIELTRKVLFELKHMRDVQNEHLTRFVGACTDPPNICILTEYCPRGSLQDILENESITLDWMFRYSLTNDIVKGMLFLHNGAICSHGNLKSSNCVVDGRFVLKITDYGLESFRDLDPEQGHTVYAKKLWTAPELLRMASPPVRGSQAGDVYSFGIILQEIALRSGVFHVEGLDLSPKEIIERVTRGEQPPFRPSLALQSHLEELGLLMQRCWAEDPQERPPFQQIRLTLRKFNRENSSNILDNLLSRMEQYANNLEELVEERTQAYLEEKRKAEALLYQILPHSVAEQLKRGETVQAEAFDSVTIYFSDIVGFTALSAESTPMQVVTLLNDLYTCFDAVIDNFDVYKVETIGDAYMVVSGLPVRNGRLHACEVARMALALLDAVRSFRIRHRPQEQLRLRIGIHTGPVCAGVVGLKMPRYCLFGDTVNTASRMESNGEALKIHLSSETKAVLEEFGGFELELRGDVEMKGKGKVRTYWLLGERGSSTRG
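HEK293 cells stably expressing human Npr1 and cGMP GloSensor pGS-40F, loaded 2 h with 2% GloSensor reagent, given compound 30 min at room temperature. Luminescence read before and 20 min after 0.1 nM hNppA.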
* = called active by the depositor; & = joins results of further samples; [ ] = another dose, or the depositor's remark. On the % scale 0 is the no-effect control and ±100 the full control effect; potency means the concentration at half of the fitted maximal effect. Some of the compounds tested (hit frequency here may not be typical).

What do the screens show for `CC1(C(=O)Nc2ccc(F)c(Cl)c2)COCc2cnc(Nc3ccccc3)nc21` (centres undefined)?
NPR1 antag: inconclusive

How did CCOc1ccc(NC(=O)N2C[C@@H](F)C[C@H]2C(=O)N2CCc3ccccc3C2)cc1 do in these assays?
NPR1 antag: 5%

Results for COc1cc(=O)n2c(c1C(=O)Nc1ccc(N(C)C)cc1)CCCC2 ?
NPR1 antag: -5%

How did CCC(=O)Nc1ccc(-c2c(-c3cc(OC)cc(OC)c3)nn(-c3ccc(C)cc3)c2OC(C)=O)cc1 do in these assays?
NPR1 antag: -21%

Results for CNC(=O)[C@@H]1CN(C(=O)c2cccc(C(F)(F)F)c2)C[C@H]1COC ?
NPR1 antag: -10%

How did Cc1nn(-c2ccc(F)cc2)c(Oc2ccc(F)cc2F)c1CCC(=O)NCC1CC1 do in these assays?
NPR1 antag: inconclusive

How did COCCCNC(=O)N1CC(c2nc(CCOCC3CCOCC3)no2)C1 do in these assays?
NPR1 antag: 5%

Results for CN(C(=O)c1ccc(F)cc1)C1CCc2ccccc21 (centres undefined) ?
NPR1 antag: -4%[70.6 µM]

Results for CC(C)c1nc2c(c(-c3ccc(O)cc3)n1)CN(Cc1cccc(F)c1)CC2 ?
NPR1 antag: 6%

What do the screens show for `O=C(C1CCC1)N1CCC(c2noc(CO)n2)C1` (centres undefined)?
NPR1 antag: 0%

What do the screens show for `Cn1c(CO[C@H]2CN(Cc3ccc4c(c3)OCO4)C[C@H]2F)nc2ccccc21`?
NPR1 antag: 1%[70.6 µM]

Results for Cc1ccc(CN2CCc3nn(C)c(=O)n3CC2)o1 ?
NPR1 antag: -2%

How did CCCC1(CO)CCCN(Cc2cnn(-c3cccc(F)c3)c2)C1 (centres undefined) do in these assays?
NPR1 antag: 2%

How did O=C(NC1CCN(c2cc(-c3ccc(F)cc3)[nH]n2)C1)c1ccc(F)cc1Cl (centres undefined) do in these assays?
NPR1 antag: -20%

How did O=C(NCc1ccccn1)C1CCN(C(=O)c2ncn3c2COC(c2ccc(Cl)cc2)C3)CC1 (centres undefined) do in these assays?
NPR1 antag: 1%

What do the screens show for `COc1ccc2nc(CO[C@H]3CN(Cc4ccccn4)C[C@H]3F)[nH]c2c1`?
NPR1 antag: -1%[70.6 µM]

Results for COc1ccc(CN2CCN(c3noc(C(C)C)n3)CC2CCO)cc1C (centres undefined) ?
NPR1 antag: -1%

What do the screens show for `COc1cccc(F)c1C(=O)N1C[C@@H](CN2CCOCC2)[C@@H](CO)C1`?
NPR1 antag: 19%

How did NCCC1CCN(C(=O)Nc2cc(F)cc(F)c2)CC1 do in these assays?
NPR1 antag: 3%

Results for O=C(c1ccc2[nH]ccc2c1)N1CCN(C(=O)c2nnn3c2COC(c2ccccc2)C3)CC1 (centres undefined) ?
NPR1 antag: -15%

Results for O=C(CCc1ccnc(N2CCCC2)c1)N1CCN(c2cccc(Cl)c2)CC1 ?
NPR1 antag: -15%

Results for COc1ccc(CN2C(=O)CO[C@H]3CN(Cc4cccnc4)C[C@H]32)cc1 ?
NPR1 antag: 10%[70.6 µM]

Results for COc1ccc(-c2ncc3c(n2)OCCN(CC2CC2)C3=O)cc1 ?
NPR1 antag: inconclusive

Results for O=C(NC[C@H]1O[C@H](Cc2cc(-c3ccc(F)cc3)on2)CC[C@@H]1O)c1ccncc1 ?
NPR1 antag: inconclusive

What do the screens show for `O=C(NCC1CC1)c1cccc(OC2CN(Cc3ccc(F)cc3F)C2)c1`?
NPR1 antag: -15%

Results for Cc1ncn(C)c1C(=O)N[C@@H]1CCOC[C@H]1Oc1ccc(C#N)cc1 ?
NPR1 antag: 1%

What do the screens show for `COCCCNC(=O)NCC(=O)N1CCCCCNC(=O)CC1c1ccccc1` (centres undefined)?
NPR1 antag: 2%

What do the screens show for `O=C(Cc1cccs1)N1CCOc2ccc(CN3CCc4ccccc4C3)cc2C1`?
NPR1 antag: -23%

How did CCc1nncn1C1CCN(S(=O)(=O)c2ccc(Cl)s2)C1 (centres undefined) do in these assays?
NPR1 antag: -6%

How did Cc1ccc(S(=O)(=O)N2CCC(CCC(=O)NCCCc3ccccc3)CC2)cc1 do in these assays?
NPR1 antag: inconclusive

What do the screens show for `CN(CCCN1CCOCC1)Cc1nc(-c2ccc(Cl)cc2)no1`?
NPR1 antag: -2%

How did CCCCc1nn(CC(=O)N(C)Cc2ccc(C)o2)c(=O)n1CC do in these assays?
NPR1 antag: 9%

How did Cc1ccc(OCC(=O)N2CCCCCC2c2nnc(-c3ccccc3)o2)cc1 (centres undefined) do in these assays?
NPR1 antag: 4%

What do the screens show for `Cc1noc(-c2cn(C3CCN(C(=O)Cc4cccc(Cl)c4)CC3)nn2)n1`?
NPR1 antag: 1%

What do the screens show for `O=C(c1cccc(N2CCCC2=O)c1)N1CCCC(O)(CN2CCCC2)C1` (centres undefined)?
NPR1 antag: -2%

How did COc1ccc(-c2nc(C(=O)N3CCCC3)n3ccccc23)cc1 do in these assays?
NPR1 antag: -3%[70.6 µM]

Results for COc1cccc(CCC(=O)N2CCC(CC(=O)NC3CC3)C2)c1 (centres undefined) ?
NPR1 antag: 0%

How did CC(C)(C)CC(=O)N1CC[C@H](NC(=O)NC2CCCCC2)[C@H]1C(=O)N[C@H](Cc1c[nH]c2ccccc12)C(N)=O do in these assays?
NPR1 antag: 2%

What do the screens show for `CN(C(=O)c1cccnc1)C(Cc1ccc(F)cc1F)C1CCN(C(=O)C2(C)CCCCC2)CC1` (centres undefined)?
NPR1 antag: -2%

How did CC(C)(C)c1ccc(CN2CC3(COCC2=O)CN(c2cnccn2)C3)cc1 do in these assays?
NPR1 antag: -4%[70.6 µM]

What do the screens show for `Cc1ccc(NC(=O)N2C[C@@H](F)C[C@H]2C(=O)N2CCc3ccccc3C2)cc1C`?
NPR1 antag: -10%

How did COc1ccc(OC)c(CN2CCC3(COC(=O)N3Cc3ccccc3)C2)c1 (centres undefined) do in these assays?
NPR1 antag: -1%[70.6 µM]

How did COc1ccc(NC(C)=O)cc1NC(=O)CC[C@H]1NC(=O)c2ccccc2NC1=O do in these assays?
NPR1 antag: 3%

What do the screens show for `COc1cccc(C2Cn3nnc(-c4nc(-c5cccc(F)c5)no4)c3CO2)c1` (centres undefined)?
NPR1 antag: -2%

What do the screens show for `CC(C)CNC(=O)N1CCCCCCNC(=O)[C@@H]2C[C@@H](c3nc(-c4cccnc4)no3)C[C@@H]21`?
NPR1 antag: -4%

Results for CSc1ccc(CNC(=O)CCn2ccn3nc4c(c3c2=O)CCCC4)cc1 ?
NPR1 antag: 1%

Results for CCN1CCN(C(=O)C2Cn3cccc3C(=O)N2CC(C)C)CC1 (centres undefined) ?
NPR1 antag: -6%

What do the screens show for `O=C(NC[C@H]1OC[C@@H](N(Cc2cccs2)Cc2cccs2)[C@@H]1O)c1ccccc1`?
NPR1 antag: -4%[70.6 µM]

What do the screens show for `O=C(NCC1CC1)C1CN(c2cccc(Cl)c2)C(=O)N1` (centres undefined)?
NPR1 antag: 14%&11%[70.6 µM]

What do the screens show for `COc1ccc(C(=O)N(C)Cc2ccc(F)cc2)cc1`?
NPR1 antag: 2%[70.6 µM]

How did O=C(NCc1c[nH]c2ncccc12)c1cccc(Br)c1 do in these assays?
NPR1 antag: 3%[70.6 µM]

What do the screens show for `Cc1oc2ccn(Cc3ccccc3F)c(=O)c2c1C(=O)NCc1cccnc1`?
NPR1 antag: -1%

What do the screens show for `CC(=O)N[C@H]1CC[C@]2(C)CC[C@@H](C(C)C(=O)NC3CC3)[C@H](O)[C@H]2[C@@H]1C` (some centres undefined)?
NPR1 antag: 1%[70.6 µM]

How did CCN1c2cc(C(=O)NCc3ccc(OC)c(OC)c3)ccc2C(=O)N2CCCCCC21 (centres undefined) do in these assays?
NPR1 antag: -10%

What do the screens show for `O=C(Nc1ccc(Cl)cc1)N1CCC(c2nn(-c3ccc(F)cc3)c(=O)[nH]2)CC1`?
NPR1 antag: -11%

What do the screens show for `O=C(CCN1CCCO1)N[C@@H]1COCC[C@@H]1OCc1ccccc1`?
NPR1 antag: 0%

What do the screens show for `Cn1nccc1C(=O)N1[C@@H]2CC[C@H]1CC(NC(=O)c1ccc(F)cc1)C2` (some centres undefined)?
NPR1 antag: -1%

Results for CC(=O)Nc1cccc(-c2ccc3c(n2)CN(Cc2ccccc2F)C(=O)CO3)c1 ?
NPR1 antag: -12%[70.6 µM]

How did CCn1ccnc1CNC(=O)c1cc(OC)ccc1OC1CCN(C(=O)C2CC2)CC1 do in these assays?
NPR1 antag: 2%

How did CC(=O)Nc1ccc(S(=O)(=O)N[C@H]2C[C@@H](c3nc(-c4ccc(F)cc4)no3)N(C)C2)cc1 do in these assays?
NPR1 antag: inconclusive

How did COc1ccc(-c2noc(CN3CCCCC3c3cccc(F)c3)n2)c(OC)c1OC (centres undefined) do in these assays?
NPR1 antag: 0%

Results for CS(=O)(=O)c1ccc(N2CCN(C(=O)CC3COCCN3)CC2)c(F)c1 (centres undefined) ?
NPR1 antag: 2%

How did COc1ccc(N2Cc3c(NCCCc4ccccc4)ncnc3N(C)CC2=O)cc1 do in these assays?
NPR1 antag: 3%

What do the screens show for `COc1cccc(CN2Cc3nc(-c4cccc(NC(C)=O)c4)ccc3OCC2=O)c1`?
NPR1 antag: -15%[70.6 µM]

What do the screens show for `CCN1c2cc(C(=O)NCCC3=CCCCC3)ccc2C(=O)N2CCCCCC21` (centres undefined)?
NPR1 antag: -7%

Results for O=C(NCCCc1ccccc1)c1n[nH]c2c1CN(C(=O)c1ccc(F)cc1)CC2 ?
NPR1 antag: 3%

Results for Cc1cnc(C(=O)N[C@@H]2CCC[C@@H]2C(=O)N2CCN(Cc3ccccc3)CC2)cn1 ?
NPR1 antag: 0%

Results for CCCc1noc(-c2ccn3c(CNC(=O)c4ccoc4)nnc3c2)n1 ?
NPR1 antag: -7%

Results for O=C(N[C@H]1CCN2C(=O)c3cc(-c4ccccc4F)ccc3NC(=O)[C@@H]2C1)c1ccc(F)c(Cl)c1 ?
NPR1 antag: inconclusive

Results for CC1=C(C(=O)OC(C)C)C(c2ccc(C)cc2)N2C(CC(=O)N(C)Cc3ccco3)=CSC2=N1 (centres undefined) ?
NPR1 antag: -24%

How did O=C(Nc1ccc(Cl)cc1)c1cc2n(n1)CC(c1ccc(Cl)cc1)OC2 (centres undefined) do in these assays?
NPR1 antag: 11µM*

Results for CC(C)CN1C(=O)c2ccccc2C(C(=O)NCc2ccccn2)C12CCCC2 (centres undefined) ?
NPR1 antag: -2%

Results for CCOc1cccc(CN2CC(c3nc(Cc4cccnc4)no3)C2)c1 ?
NPR1 antag: -8%

What do the screens show for `Cc1ccccc1CCC1CCCN(C(=O)CCN2CCCC2=O)C1` (centres undefined)?
NPR1 antag: 1%

Results for CCOCCCNC(=O)N1CCC(Cc2nc(-c3ccncc3)n[nH]2)CC1 ?
NPR1 antag: 4%

How did Cc1cnc(C2CCOCC2)n1CCN do in these assays?
NPR1 antag: 1%

What do the screens show for `O=C(NC1CCN(C(=O)N2CC3CC(C2)[C@H]2CCCC(=O)N2C3)CC1)c1ccc2ccccc2n1` (some centres undefined)?
NPR1 antag: -1%

Results for CC1=C[C@@H](CNS(=O)(=O)c2ccc(Cl)cc2)[C@H](C(C)C)C[C@H]1CC(=O)N1CCOCC1 ?
NPR1 antag: inconclusive

Results for O=C(NC1CC1)c1ccccc1OC1CN(Cc2cccc(C(F)(F)F)c2)C1 ?
NPR1 antag: -24%

Results for O=C1[C@H]2CN(Cc3ccc(Br)cc3)C[C@H]2C(=O)N1CCc1ccccc1 ?
NPR1 antag: -21%

What do the screens show for `COCc1nc(-c2nc3c([nH]2)CC(c2ccc(Cl)cc2)CNC3=O)no1` (centres undefined)?
NPR1 antag: 4%

What do the screens show for `Cc1nc(C)c(C(=O)N2CCC(Cc3nc(-c4ccccc4)n[nH]3)CC2)s1`?
NPR1 antag: 7%

Ordered by molecular weight (falling): some entries from above.
How did CCC(=O)Nc1ccc(-c2c(-c3cc(OC)cc(OC)c3)nn(-c3ccc(C)cc3)c2OC(C)=O)cc1 do in these assays?
NPR1 antag: -21%

How did O=C(NCc1ccccn1)C1CCN(C(=O)c2ncn3c2COC(c2ccc(Cl)cc2)C3)CC1 (centres undefined) do in these assays?
NPR1 antag: 1%

Results for CC1=C[C@@H](CNS(=O)(=O)c2ccc(Cl)cc2)[C@H](C(C)C)C[C@H]1CC(=O)N1CCOCC1 ?
NPR1 antag: inconclusive

How did CC(=O)Nc1ccc(S(=O)(=O)N[C@H]2C[C@@H](c3nc(-c4ccc(F)cc4)no3)N(C)C2)cc1 do in these assays?
NPR1 antag: inconclusive

How did CCn1ccnc1CNC(=O)c1cc(OC)ccc1OC1CCN(C(=O)C2CC2)CC1 do in these assays?
NPR1 antag: 2%

What do the screens show for `COCCCNC(=O)NCC(=O)N1CCCCCNC(=O)CC1c1ccccc1` (centres undefined)?
NPR1 antag: 2%

What do the screens show for `Cc1noc(-c2cn(C3CCN(C(=O)Cc4cccc(Cl)c4)CC3)nn2)n1`?
NPR1 antag: 1%

Results for CS(=O)(=O)c1ccc(N2CCN(C(=O)CC3COCCN3)CC2)c(F)c1 (centres undefined) ?
NPR1 antag: 2%

How did COCCCNC(=O)N1CC(c2nc(CCOCC3CCOCC3)no2)C1 do in these assays?
NPR1 antag: 5%

Results for CC(C)c1nc2c(c(-c3ccc(O)cc3)n1)CN(Cc1cccc(F)c1)CC2 ?
NPR1 antag: 6%

How did CCc1nncn1C1CCN(S(=O)(=O)c2ccc(Cl)s2)C1 (centres undefined) do in these assays?
NPR1 antag: -6%

Results for Cc1ncn(C)c1C(=O)N[C@@H]1CCOC[C@H]1Oc1ccc(C#N)cc1 ?
NPR1 antag: 1%

How did CCCCc1nn(CC(=O)N(C)Cc2ccc(C)o2)c(=O)n1CC do in these assays?
NPR1 antag: 9%

How did O=C(NCc1c[nH]c2ncccc12)c1cccc(Br)c1 do in these assays?
NPR1 antag: 3%[70.6 µM]
